Source: PubChem BioAssay
BJeLR viability – kills HRASV12-expressing BJeLR cells; BJeLR (HRASV12) viability, CellTiter-Glo ATP luminescence, 48 h; reference of the scale not given here; inhibition, % (no concentration beside the values); actives 0.17% (n = 300,000); AID 1554;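 active = replicate mean above 50%; inconclusive = above 50% but judged a plate artefact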;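 also: 50 nL library stock added to about 25 µL; numbers are from one replicate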
Mtb hypoxia rep – reduces hypoxia-regulated biosensor signal in M. tuberculosis. actives 0.1% (n = 300,000). fluorescence inhibition, % (test concentration not listed). M. tuberculosis hypoxia-regulated fluorescent reporter, fluorescence. AID 1159583;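 active = 35 to 45% if threefold the growth effect, above 45% if 1.5-fold the growth effect; inactive = the rest, general growth blockers included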;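 also: wells of about 50 µL received 100 nL stock; 0% = vehicle wells and 100% = reference inhibitor wells; whole bacteria with a GFP reporter of the hypoxia response; strong numbers were not always called active; many hits fall short of the cut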
Sa ugtP lethal – growth inhibition of S. aureus ugtP deletion strain; S. aureus RN4220 ugtP deletion, OD600 growth, 16 h; some inactives read as strong as hits; growth inhibition, % (test concentration not listed); actives 0.54% (n = 330,000);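 active = z-score under -3 and OD600 up to 0.15 on both plates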;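 also: plate controls were untreated wells for no effect and antibiotic for full effect; wells of about 80 µL received 100 nL stock; the first replicate is given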
PrP 5UTR inh – suppresses PrP 5' UTR mRNA reporter expression; cell-based PrP 5' UTR mRNA reporter, plate reader; inhibition, % (no concentration beside the values); actives 0.35% (n = 340,000); AID 488862;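 active = every replicate at 50% or more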;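 also: 0 = median of the neutral control wells; tested in H4 reporter cells; numbers are from one replicate; inactives centre near -14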
RN4220 kill – kills Staphylococcus aureus RN4220; S. aureus RN4220 growth, OD600, 16 h; inhibition, % (no concentration beside the values); actives 0.33% (n = 330,000);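 active = z-score of -3 or lower and OD600 up to 0.18 on both plates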;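 also: plate controls were untreated cells for no effect and reference antibiotic for full effect; stock transfer was 100 nL into about 80 µL; one replicate is shown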
Bead autofluor – counter-screen for toxin protease inhibitors: compound fluorescence | compound autofluorescence counterscreen, microsphere flow cytometry; stronger effect = higher value | fluorescence intensity (concentration not given with the values) | actives 3.1% (n = 360,000) | AID 624483;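 active = at least 3 SD above the mean of all compounds, about 16000 in these data; inconclusive = too few beads counted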;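 also: 100 nL of 1 mM stock went into each well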
Mtb hypoxia rep growth – second read-out of Mtb hypoxia rep, no call of its own (marks repeat the call); growth inhibition, %; measured here: M. tuberculosis growth (absorbance);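 0% = vehicle and 100% = reference antibiotic; read after six days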
Active calls of the source: *; ? = inconclusive; · = not tested or not shown; & = joins results of further samples. Compounds were not picked by outcome, and some 4% of all compounds hit somewhere here.

entry	compound	BJeLR viability	Mtb hypoxia rep	Mtb hypoxia rep growth	Sa ugtP lethal	PrP 5UTR inh	RN4220 kill	Bead autofluor
1	CC(C)CN(C(=O)COC(=O)c1cccnc1Cl)c1c(N)n(Cc2ccccc2)c(=O)[nH]c1=O	-7	·	·	·	-22	·	6416
2	O=C(NN=Cc1cccc([N+](=O)[O-])c1)c1ccc2c(c1)OCCO2	·	7	6	-7	·	-0.6	·
3	O=C(Cn1cc(C=NNC(=O)c2cccc(C(F)(F)F)c2)c2ccccc21)Nc1ccc(F)cc1	·	9	16	-27	·	-10	·
4	O=C(Nc1ccccc1F)c1ccc(COc2ccc(Cl)cc2Cl)o1	-12	11	9	39	-21	6.0	4574
5	Cc1nc2nc(SCC(=O)NCc3ccco3)nn2c(C)c1Cc1ccccc1	-11	-6	-17	-2	-22	-2.6	4116
6	O=C1CC(c2ccncc2)c2cc3c(cc2N1)OCO3 (stereo not drawn)	·	·	·	2	-31	-0.4	4107
7	Cc1[nH]c(C)c(S(=O)(=O)NCCc2ccccc2)c1C(=O)N1CCCCC1	-1	1	8	9	-12	5.5	5407
8	COc1ccccc1OCC(=O)N(Cc1nc(-c2ccccc2)no1)C(C)C	-1	-12	9	-2	3	5.4	2941
9	Cc1cccc(NC(=S)N(CCCN2CCOCC2)C(C)c2cc3ccccc3o2)c1 (stereo not drawn)	-1	1	-10	-2	-7	2.2	4053
10	O=C(NC1CCCC1)c1cc2c(=O)n3ccccc3nc2s1	·	0	5	2	-29	-0.1	3561
11	COc1ccc(CCNC(=O)CC(c2ccccc2)c2cccc(C)c2O)cc1OC (stereo not drawn)	-3	4	9	9	-20	-0.3	5272
12	O=C(CNS(=O)(=O)c1ccc(F)c(Cl)c1)N1CCCCCC1	-6	4	0	10	-12	5.6	9663

(more compounds)
entry	compound	BJeLR viability	Mtb hypoxia rep	Mtb hypoxia rep growth	Sa ugtP lethal	PrP 5UTR inh	RN4220 kill	Bead autofluor
13	COCCOC(=O)c1c(C)oc2ccc(OC(=O)N(C)C)cc12	-5	9	10	3	-12	4.9	10341
14	CN1c2ccccc2-c2nc3ccccc3n2C1c1cccs1 (stereo not drawn)	1	3	2	-15	-12	-1.6	2411
15	COCCNC(=O)/C(C#N)=C/c1c(F)cccc1Cl	2	16	9	7	-20	10	2570
16	C[C@@H]1CC[C@@]2(O[C@H](CCO)C[C@@H](O)[C@@H]2O)O1	8	·	·	·	-28	·	4319
17	CN(Cc1cccc(F)c1)C(=O)CN1CCN(S(=O)(=O)c2ccc3c(c2)OCCCO3)CC1	·	-4	-2	-1	-10	-2.3	2947
18	O=C(COC(=O)CCN=C1NS(=O)(=O)c2ccccc21)NNC(=O)c1ccc(Cl)cc1	·	1	5	5	-24	7.7	8582
19	CC1CN(C(=O)/C=C/c2ccccc2[N+](=O)[O-])CC(C)O1 (stereo not drawn)	13	·	·	·	-9	·	2508
20	Cn1nnnc1SCSc1nnnn1C	-2	2	9	2	-6	4.3	2405
21	COc1ccccc1NC(=O)c1cc(Cl)nc2ccccc12	-5	2	1	-2	-7	12	5085
22	Cc1ccc(NC(=O)C2(c3cccs3)CCOCC2)cc1C	-9	8	7	6	-20	-1.2	7366
23	CC(=O)CC1c2cc(C(F)(F)F)ccc2S(=O)(=O)N1c1ccc(N(C)C)cc1 (stereo not drawn)	·	16	18	8	·	4.2	·
24	C=CCn1c(=S)[nH]c2nc3c(cc2c1=O)COC(C)(C)C3	2	7	5	1	-28	3.6	9574

4 of these compounds, set out differently.
20) Cn1nnnc1SCSc1nnnn1C
  BJeLR viability = -2 | Mtb hypoxia rep = 2 | Mtb hypoxia rep growth = 9 | Sa ugtP lethal = 2 | PrP 5UTR inh = -6 | RN4220 kill = 4.3 | Bead autofluor = 2405

21) COc1ccccc1NC(=O)c1cc(Cl)nc2ccccc12
  BJeLR viability = -5 | Mtb hypoxia rep = 2 | Mtb hypoxia rep growth = 1 | Sa ugtP lethal = -2 | PrP 5UTR inh = -7 | RN4220 kill = 12 | Bead autofluor = 5085

22) Cc1ccc(NC(=O)C2(c3cccs3)CCOCC2)cc1C
  BJeLR viability = -9 | Mtb hypoxia rep = 8 | Mtb hypoxia rep growth = 7 | Sa ugtP lethal = 6 | PrP 5UTR inh = -20 | RN4220 kill = -1.2 | Bead autofluor = 7366

23) CC(=O)CC1c2cc(C(F)(F)F)ccc2S(=O)(=O)N1c1ccc(N(C)C)cc1 (stereo not drawn)
  BJeLR viability = · | Mtb hypoxia rep = 16 | Mtb hypoxia rep growth = 18 | Sa ugtP lethal = 8 | PrP 5UTR inh = · | RN4220 kill = 4.2 | Bead autofluor = ·

More results:
entry	compound	BJeLR viability	Mtb hypoxia rep	Mtb hypoxia rep growth	Sa ugtP lethal	PrP 5UTR inh	RN4220 kill	Bead autofluor
25	Cc1ccc(NC(=O)CN2C(=O)S/C(=C\c3cccn3-c3cccc(C(=O)O)c3)C2=O)c(C)c1	-3	·	·	-8	-10	8.3	2164
26	CCOc1cccc(C(=O)NC(=S)Nc2cccnc2)c1	9	3	-1	0	-27	-0.7	2114
27	COc1ccc(Cc2nnc(SCC(=O)c3ccc4c(c3)OCO4)o2)cc1	-5	3	-2	12	-12	0.4	?
28	Cc1cc(C)nc(SCC(=O)Nc2ncccn2)n1	9	-9	0	4	·	6.1	·
29	CCOC(=O)CSc1nc(=O)n2ccccc2n1	-7	3	-2	2	4	2.8	3696
30	O=C(CNc1ccccc1)NN=Cc1ccc2c(c1)OCO2	·	-3	-1	0	·	2.7	·
31	CCOC(=O)C1=C(C)NC(C)=C(C(=O)OCC)C1C(=O)OCC(=O)N1c2ccccc2CC1C (stereo not drawn)	3	6&6	7&3	-4&-4	-5&3	3.6&1.9	3640&4408
32	CCOC(=O)C1=C(CS(=O)(=O)c2ccccc2)NC(=O)NC1c1cc(OC)c(O)c(OC)c1 (stereo not drawn)	5	6	-2	9	0	2.0	5456
33	C[C@H](NC(=O)c1ccco1)C(=O)Nc1nc(-c2ccccn2)cs1	·	8	8	-1	-8	2.1	3764
34	O=c1[nH]cnc2c1C(c1ccccc1[N+](=O)[O-])c1c(nc[nH]c1=O)O2	2	-2	5	0	-13	1.2	20743*
35	CCOc1ccc(NC(=O)CN(C)C(=O)CC(NC(=O)c2ccccc2)c2ccccc2)cc1OCC (stereo not drawn)	-5	-3	-2	2	-11	-1.1	·
36	C/C(=N\NC(N)=O)c1ccc(-n2ccnc2)cc1	1	·	·	·	-13	·	3984

Other structures:
entry	compound	BJeLR viability	Mtb hypoxia rep	Mtb hypoxia rep growth	Sa ugtP lethal	PrP 5UTR inh	RN4220 kill	Bead autofluor
37	CCOC(=O)CC(=O)c1sc2c(c1N)c(=O)[nH]c(=O)n2-c1ccc(OC)cc1	3	·	·	4	-12	3.2	4292
38	CCOC(=O)C1CCN(c2ncnc3c2nnn3Cc2ccccc2Cl)CC1	0	-1	-3	-8	-19	22	3950
39	CSc1ccc(/C=N/NC(=O)c2ccc(C)c(C)c2)cc1	12	·	·	·	-40	·	9122
40	S=c1[nH]nc(-c2cc(-c3ccco3)[nH]n2)n1-c1cccc2ccccc12	-12	-8	9	-20	-40	-8.5	3976
41	CCCCCCCCC=CCCCCCCCC(=O)NCCO	·	4	-3	48	·	-14	·
42	O=S(=O)(Nc1cccnc1)c1ccccc1	0	3	-6	-2	-10	4.0	4433
43	CCOC(=O)C1CCCN(S(=O)(=O)c2ccc(-c3cc(C)no3)s2)C1 (stereo not drawn)	-8	13	1	-7	-10	4.1	4248
44	CCn1c(SCC(=O)Nc2cccnc2Cl)nnc1-c1ccccc1	3	10	-1	6	-5	1.4	8564
45	CSCC[C@@H](Nc1nc(-c2ccccc2)nc2c1oc1ccccc12)C(=O)O	2	-7	5	-10	-1	8.0	11365
46	CN(CC(=O)Nc1cccc(F)c1)C(=O)c1ccc(C(=O)c2ccccc2)cc1	·	-5	-12	1	-33	-1.2	6049
47	COc1ccc(-c2nn(-c3ccccc3)cc2C=NO)cc1	·	-9	-3	-8	·	-1.2	·
48	OC(COc1ccc(Br)cc1)CN1CCOCC1 (stereo not drawn)	-2	-7	-2	4	-19	3.3	2293

(list continues)
entry	compound	BJeLR viability	Mtb hypoxia rep	Mtb hypoxia rep growth	Sa ugtP lethal	PrP 5UTR inh	RN4220 kill	Bead autofluor
49	CCOC(=O)c1ccc(CNC(=O)Cn2nnc(-c3ccccc3F)n2)o1	-4	·	·	·	-10	·	3927
50	c1cncc(CNc2nc(N3CCOCC3)nc(N3CCOCC3)n2)c1	-6	-7	-7	1	15	2.3	8857
51	O=C(Nc1ccc(Br)cc1)N1CCCC(O)C1 (stereo not drawn)	14	17	6	12	-30	9.3	3312
52	O=C(COC(=O)c1ccc([N+](=O)[O-])o1)NCc1ccc(F)cc1	·	-3	-1	10	-20	11	3052
53	O=C(NC1CCCCC1)C(c1ccncc1)N(Cc1ccccc1)C(=O)c1ccc(-c2ccccc2)[nH]1 (stereo not drawn)	-4	-10	1	2	-3	2.0	4374
54	CCOC(=O)c1ccc[n+](CC(=O)c2ccccc2)c1	1	7	4	4	-41	3.2	2490
55	COc1cccc(CNC(=O)c2ccc3nc[nH]c3c2)c1	0	-1	3	6	-5	3.9	7080
56	CN1CCN(/N=C/c2ccc(-c3ccccc3)cc2)CC1	-3	·	·	·	-16	·	3522
57	COc1ccc(NC(=O)CN2C(=O)NC(C)(C3CCCCC3)C2=O)c(OC)c1 (stereo not drawn)	·	0	8	-1	-3	-0.5	3723
58	CCOC(=O)CSc1nnc(CNc2ccccc2Cl)n1-c1ccccc1	-15	10	9	-5	-16	4.0	8334
59	CCOC(=O)C1/C(=N\O)CC(C)(O)C(C(=O)OCC)C1c1ccc(N(C)C)cc1 (stereo not drawn)	8	·	·	·	-25	·	3287
60	Cc1c(Cl)cccc1Nc1ccccc1C(=O)O	9	-7	-1	-22	-1	20	4019

5 entries out of the list, ordered by SMILES length, rising.
entry	compound	BJeLR viability	Mtb hypoxia rep	Mtb hypoxia rep growth	Sa ugtP lethal	PrP 5UTR inh	RN4220 kill	Bead autofluor
60	Cc1c(Cl)cccc1Nc1ccccc1C(=O)O	9	-7	-1	-22	-1	20	4019
50	c1cncc(CNc2nc(N3CCOCC3)nc(N3CCOCC3)n2)c1	-6	-7	-7	1	15	2.3	8857
52	O=C(COC(=O)c1ccc([N+](=O)[O-])o1)NCc1ccc(F)cc1	·	-3	-1	10	-20	11	3052
57	COc1ccc(NC(=O)CN2C(=O)NC(C)(C3CCCCC3)C2=O)c(OC)c1 (stereo not drawn)	·	0	8	-1	-3	-0.5	3723
59	CCOC(=O)C1/C(=N\O)CC(C)(O)C(C(=O)OCC)C1c1ccc(N(C)C)cc1 (stereo not drawn)	8	·	·	·	-25	·	3287

(continued)
entry	compound	BJeLR viability	Mtb hypoxia rep	Mtb hypoxia rep growth	Sa ugtP lethal	PrP 5UTR inh	RN4220 kill	Bead autofluor
61	O=C(COC(=O)C1(c2ccccc2F)CCCC1)N1CCc2ccccc21	-2	8	2	-1	-9	3.4	2081
62	CC1Sc2ccc(S(=O)(=O)CCC(=O)NCc3ccccc3Cl)cc2NC1=O (stereo not drawn)	8	-2	-2	0	-16	0.8	5270
63	O=C(CSc1nnc(-c2cnccn2)n1Cc1ccco1)c1ccc2ccccc2c1	-9	9	9	-17	-10	15	21448*
64	O=C(NN=Cc1ccc(OCc2ccccc2)cc1)c1cc[n+](Cc2ccccc2)cc1	·	2	-10	6	·	1.8	·
65	CC(=O)NC1(C(F)(F)F)C(=O)Nc2c1c(=O)[nH]c(=O)n2Cc1ccco1 (stereo not drawn)	-6	·	·	4	-1	1.6	4819
66	Cc1cccc(-n2nnnc2SCc2csc(-c3ccccc3)n2)c1	16	11	7	-6	-20	12	3956
67	CCn1c(SCC(=O)Nc2nc(C)cs2)nnc1C(NC(=O)c1ccccc1Cl)C(C)C (stereo not drawn)	-2	22	4	7	-7	2.1	2432
